# FPRL1 ligand – ligands of human FPRL1, also counter-screen for FPR ligands; P25090; actives 0.3% (n = 24,000); inhibition, %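 (tested at 6.7 µM)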; FPRL1-expressing cells, fluorescent ligand binding inhibition, flow cytometry;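 further: 0% = buffer alone and 100% = receptor blocker peptide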
# Target sequence (P25090 whole entry, looked up): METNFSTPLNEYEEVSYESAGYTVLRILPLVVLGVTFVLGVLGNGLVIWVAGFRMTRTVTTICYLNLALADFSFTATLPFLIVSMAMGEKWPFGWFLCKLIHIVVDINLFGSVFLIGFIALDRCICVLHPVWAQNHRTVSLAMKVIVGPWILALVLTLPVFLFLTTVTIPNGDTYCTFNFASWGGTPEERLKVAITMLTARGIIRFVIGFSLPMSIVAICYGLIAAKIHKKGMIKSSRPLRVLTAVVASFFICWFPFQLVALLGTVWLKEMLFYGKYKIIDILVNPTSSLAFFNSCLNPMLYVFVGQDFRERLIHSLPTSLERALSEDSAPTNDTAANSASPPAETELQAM
# FPR binder – human FPR ligand, with FPRL1 counter-screen; AID 440; P21462; inhibition, %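 (tested at 6.7 µM)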; actives 0.74% (n = 24,000); FPR-expressing cells, fluorescent ligand binding, flow cytometry;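 further: 0% = buffer wells and 100% = receptor blocker peptide wells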
# Target sequence (P21462 whole entry, looked up): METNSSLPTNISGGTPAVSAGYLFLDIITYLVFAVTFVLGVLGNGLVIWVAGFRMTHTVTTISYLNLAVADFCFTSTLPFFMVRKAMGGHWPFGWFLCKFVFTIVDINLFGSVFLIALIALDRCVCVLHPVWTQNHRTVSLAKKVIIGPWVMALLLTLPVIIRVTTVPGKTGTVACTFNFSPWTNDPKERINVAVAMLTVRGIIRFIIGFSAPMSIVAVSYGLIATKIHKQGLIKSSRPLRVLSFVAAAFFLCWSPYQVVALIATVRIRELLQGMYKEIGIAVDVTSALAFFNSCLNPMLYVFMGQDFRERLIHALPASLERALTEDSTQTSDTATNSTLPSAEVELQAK
# VCAM-1 down imaging – inhibitors of TNFa-induced VCAM-1 surface display, imaging, high-content imaging, pooled HUVEC, TNFa stimulus (AID 456). HUVEC TNFa-induced VCAM-1 surface expression, immunofluorescence imaging; numbers were filed only for top-ranked candidate wells. inhibition, % at 5 µM, or IC50 in µM where a hit was titrated. actives 0.2% (n = 10,000);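 active means top tenth filtered wells with inhibition above zero that passed visual or statistical confirmation; inactive means the rest, including hits rejected on review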;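 further: 0% = stimulated vehicle wells and 100% = unstimulated cells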
# VCAM-1 augmentation – boosters of cytokine-driven VCAM-1 levels – imaging, high-content imaging, pooled HUVEC, TNFa stimulus (AID 457); Pooled HUVEC, TNFa-induced VCAM-1 immunofluorescence imaging; hits of this screen are not shown here; actives 0.2% (n = 10,000); calls only;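 active means a top-ranked rise in VCAM-1 staining upheld on image or statistical review; inactive means the rest, including candidates rejected on review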;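 further: compounds tested at 5 µM in the well; cells exposed to compound for 24 hours before fixing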
# VCAM-1 down – inhibitors of TNFa-induced VCAM-1 surface display, cell-based, plate reader, pooled HUVEC, TNFa stimulus (AID 454); actives 0.2% (n = 10,000); HUVEC TNFa-induced VCAM-1 surface immunofluorescence, plate reader; numbers were filed only for top-ranked candidate wells; inhibition, % at 5 µM;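 active means compound among top-ranked inhibitors of TNF-induced VCAM-1 adhesion protein staining, with the hit upheld by image or statistical review; inactive means the rest, including hits rejected on review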;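 further: 0% = TNFa with vehicle and 100% = cells without TNFa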
# An asterisk follows results filed as active; i = inactive; · = not tested or not shown; & = joins results of further samples.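 How the source made its calls, unless noted: active means mean above 30%; inconclusive means self-fluorescent; inactive means the rest.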
# Start of the listing, in advance, 2 compounds:
SMILES,FPRL1 ligand,FPR binder,VCAM-1 down imaging,VCAM-1 augmentation,VCAM-1 down
O=C(O)CSc1nnc(Cn2c(=O)sc3ccccc32)n1-c1cccc(Cl)c1,0,1,·,·,·
O=C(CNC(=O)c1ccccc1C(=O)O)c1ccccc1,3,3,i,i,i

# The listing, from the first entry:
SMILES,FPRL1 ligand,FPR binder,VCAM-1 down imaging,VCAM-1 augmentation,VCAM-1 down
O=C(O)CSc1nnc(Cn2c(=O)sc3ccccc32)n1-c1cccc(Cl)c1,0,1,·,·,·
O=C(CNC(=O)c1ccccc1C(=O)O)c1ccccc1,3,3,i,i,i
COc1ccc(/C(O)=C2/C(=O)C(=O)N(CCCN(C)C)C2c2ccccc2)cc1OC (configuration not stated),-4,-8,·,·,·
Cc1ccc(CCNC(=O)C2CCC(=O)N2Cc2cccnc2)cc1 (configuration not stated),-5,2,·,·,·
O=C(CCCn1c(=S)[nH]c2cc3c(cc2c1=O)OCO3)N1CCN(c2ccccc2F)CC1,2,2,i,i,i
O=C(Cn1cnc2c(nnn2Cc2ccc(F)cc2)c1=O)N1CCCCC1,2,-1,·,·,·
COc1cc(OC)c(C2C3=C(CCCC3=O)Nc3nc4ccccc4n32)cc1OC (configuration not stated),-4,-4,·,·,·
CCc1cc(C)cc(OCCNC(=O)c2ncn[nH]2)c1,2,11,i,i,i
COc1cccc(-c2cc(C(F)(F)F)n3ncc(C(=O)O)c3n2)c1,2,10,i,i,i
CCn1c(CC(=O)Nc2cccc(OC)c2)nnc1SCC(=O)Nc1nccs1,-3,-6,i,i,i
CCOC(=O)c1[nH]c(C)c(C(=O)NCc2ccc(OC)cc2)c1C,-4,3,·,·,·
Cc1ccc(Cn2c(C(=O)NCCCN3CCOCC3)cc3sccc32)cc1,2,-1,i,i,i
COC(=O)c1nnn(CC(=O)Nc2cccc(Cl)c2)c1C(=O)OC,-7,-13,·,·,·
Cc1cc(C)n2nnnc2c1C#N,-8,2,·,·,·
CCc1nnc(SCc2cn3c(C)cc(C)nc3n2)n1N,-4,-1,i,i,i
CCc1cccc2c(=O)c(C(=O)NCCN3CCOCC3)c[nH]c12,4,0,i,i,i
COc1ccc(NC(=O)N2CCC(c3nc(-c4cccs4)no3)CC2)cc1,-4,0,i,i,i
COC(=O)C(CCCCNC(=O)OCc1ccccc1)NC(=O)CN (configuration not stated),2,-4,i,i,i
COc1ccc(NC(=O)c2ccc3c(=O)n(Cc4ccco4)c(=S)[nH]c3c2)c(OC)c1,-3,-1,·,·,·
CCN(CC)C(=O)CN(C)S(=O)(=O)c1cccc2nsnc12,-9,1,·,·,·
COc1c(N)c2ccccc2[nH]c1=O,-8,-14,·,·,·
O=C(Nc1nc(-c2ccc(S(=O)(=O)N3CCCC3)cc2)cs1)C1COc2ccccc2O1 (configuration not stated),1,-6,i,i,i
O=C(CSc1nnc(-c2ccc3c(c2)OCCO3)o1)NC1CCCCC1,12,-7,·,·,·
CCOC(=O)c1c(NC(=O)Cn2c(C)nc3ccccc32)sc2c1CCC2,4,14,i,i,i
CC(=O)Nc1ccccc1-c1nc2ccc(C(=O)N3CCN(c4ccccc4)CC3)cc2[nH]c1=O,4,4,i,i,i
CCCC1CCC(C(=O)Nn2cnc3ccccc3c2=O)CC1 (configuration not stated),-4,8,i,i,i
Cc1ccccc1NC(=O)C1CC(=O)N(c2ccccc2F)C1 (configuration not stated),-1,-6,i,i,i
CCN1CCN(c2cc(C)c3cc(NC(=O)c4cnccn4)ccc3n2)CC1,-2,-5,·,·,·
CC(=O)Nc1c(O)[nH]c2ccccc12,-3,-2,i,i,i
CC(C)OC(=O)c1cc2ccccc2oc1=O,-11,-14,·,·,·
CN(C(=O)COC(=O)c1ccccc1Nc1ccccc1)C1CCS(=O)(=O)C1 (configuration not stated),-2,-9,·,·,·
NS(=O)(=O)c1ccc(NC(=O)CSc2nnc(Cc3cccs3)n2-c2ccccc2)cc1,-8,-2,i,i,i
CN1CCN(CCCNC(=O)c2cn(C3CCCCC3)c(=O)c3c2c2ccccc2n3C)CC1,-8,-19,·,·,·
Cc1ccc(CNC(=O)C2CNc3cc(C)ccc3O2)cc1 (configuration not stated),9,12,·,·,·
COc1ccc(S(=O)(=O)n2nc(OC(=O)c3cccs3)cc2N)cc1,-4,4,·,·,·
O=S(=O)(Nc1ccc2c(c1)OCCO2)c1cnc[nH]1,-2,6,·,·,·
COc1ccc(N(CC(=O)NC2CCCCCC2)S(=O)(=O)c2c(C)nn(C)c2C)cc1,9,6,·,·,·
c1cc2c(cc1C1CCCN1)OCCCO2 (configuration not stated),2,-4,i,i,i
CCOCCCNC(=O)c1c(C)[nH]c(C(=O)OCC)c1C,0,-6,·,·,·
Brc1ccc2ncnc(Nc3ccc(N4CCOCC4)cc3)c2c1,0,-1,i,i,i
COC(=O)Nc1ccc(S(=O)(=O)N(C)CC(F)(F)C(F)F)cc1,1,1,i,i,i
CCC(C(=O)N1CCOCC1)n1c(C(=O)OC)cc2occc21 (configuration not stated),1,-1,·,·,·
c1ccc(Cc2ccc(OCCn3cncn3)cc2)cc1,1,-6,i,i,i
CCOc1ccccc1C(=O)N1CCN(c2cccc(Cl)c2)CC1,1,-1,i,i,i
CC(=O)c1cn(CC(=O)NCc2ccc3c(c2)OCO3)c2ccccc12,2,0,i,i,i
COc1cccc(-n2c(Cc3cc(=O)[nH]c(=O)[nH]3)nnc2SCC(=O)N2CCCCCC2)c1,3,-1,·,·,·
CCN(CCNC(=O)C1CCN(c2nnc(-n3cccc3)s2)CC1)c1ccccc1,3,10,·,·,·
CC(C)c1ccc(C(O)c2cnc(C(C)C)n2C)cc1 (configuration not stated),5,6,i,i,i
O=C(NCCCN1CCOCC1)c1cc(-c2ccc(F)cc2)on1,-4,-5,·,·,·
Cc1cc(C)cc(-n2ccnc2SCC(=O)Nc2ccc3c(c2)OCCO3)c1,-1,-2,i,i,i

# 2 entries from above, with values under each structure.
# Below each SMILES: FPRL1 ligand	FPR binder	VCAM-1 down imaging	VCAM-1 augmentation	VCAM-1 down
c1ccc(Cc2ccc(OCCn3cncn3)cc2)cc1
    1	-6	i	i	i
O=C(NCCCN1CCOCC1)c1cc(-c2ccc(F)cc2)on1
    -4	-5	·	·	·

# Given with two lines to a compound: entries from further up
# Order of values: FPRL1 ligand	FPR binder	VCAM-1 down imaging	VCAM-1 augmentation	VCAM-1 down
- CC(=O)c1cn(CC(=O)NCc2ccc3c(c2)OCO3)c2ccccc12
  2	0	i	i	i
- COc1cccc(-n2c(Cc3cc(=O)[nH]c(=O)[nH]3)nnc2SCC(=O)N2CCCCCC2)c1
  3	-1	·	·	·

# (further entries)
SMILES,FPRL1 ligand,FPR binder,VCAM-1 down imaging,VCAM-1 augmentation,VCAM-1 down
Cc1cc(NC(=O)CSc2nnc(Cn3c(=O)sc4ccccc43)n2-c2ccccc2C)no1,16,36*,·,·,·
O=C(NC1CCCCC1)N1CCC(n2c(=O)[nH]c3ccccc32)CC1,-3,3,·,·,·
CCOc1ccc(-c2nnc3ccc(SCc4ccc(C(=O)OC)o4)nn23)cc1,-1,2,·,·,·
O=C(NCc1ccco1)c1cccn2c(=O)c3cc(Br)ccc3nc12,-10,4,·,·,·
CCC(=O)N1c2ccc(S(=O)(=O)CCC(=O)NC3CCCC3)cc2CC1C (configuration not stated),-4,-2,·,·,·
CCc1ccccc1N1CC23C=CC(O2)C(C(=O)OCC(C)C)C3C1=O (configuration not stated),2,0,·,·,·
COc1ccc(CCNC(=O)CCN2C(=O)COc3ccc(C)cc32)cc1OC,-1,-1,·,·,·
COc1ccc(OC)c(/C=c2\sc3nc(-c4cccs4)nn3c2=O)c1,-44,-22,·,·,·
C[C@]12CCC(=O)C=C1CC[C@@H]1[C@@H]2[C@@H](O)C[C@@]2(C)[C@H]1CC[C@]2(O)C(=O)COC(=O)CCC(=O)O,1&-4,-7&-3,i,i,i
COc1ccccc1NC(=O)C1CCCN(S(=O)(=O)c2cnc[nH]2)C1 (configuration not stated),1,1,·,·,·
COC(=O)C1CCN(C(=O)c2sc3nc(-c4ccc(F)cc4)cn3c2C)CC1,-7,-5,i,i,i
COc1cc(CCC(=O)N2CCN(c3ccc(N4CCOCC4)nn3)CC2)cc(OC)c1OC,-1,-2,·,·,·
O=C(CNS(=O)(=O)c1cccc2nonc12)NCc1ccc(F)cc1,0,1,·,·,·
Cc1onc(-c2ccccc2)c1C(=O)Nc1nnc(N(C)Cc2ccccc2)s1,2,7,·,·,·
Cc1nc2ccccc2c2oc(C(=O)NCCCN3CCC(C)CC3)cc12,4,2,·,·,·
O=S(=O)(c1ccc(S(=O)(=O)N2CCN3CCCC3C2)cc1)N1CCCC1 (configuration not stated),-3,-7,i,i,i
CC(C)(C)Nc1nc(OCC(F)(F)F)nc(OCC(F)(F)F)n1,0,-4,i,i,i
O=C1C2C3C=CC(C3)C2C(=O)N1c1cccc(N2C(=O)C3C4C=CC(C4)C3C2=O)n1 (configuration not stated),1,10,i,i,i
COC(=O)c1ccc2c(c1)N(Cc1cc(C)ccc1C)C(=O)c1ccccc1S2=O (configuration not stated),-2,0,·,·,·
Cc1cc(C)c2c(=O)n(CC(=O)N3CCC(N4CCCCC4)CC3)sc2n1,-4,0,·,·,·
CC(C)[C@H](NC(=O)[C@@H]1CSCN1C(=O)OC(C)(C)C)C(=O)NCC1CCC(C(=O)O)CC1 (some centres not stated),4,24,i,i,i
CCOC(=O)C1CCN(C(=O)CC2C(=O)N(Cc3ccccc3)C(C)c3nc4ccccc4n32)CC1 (configuration not stated),2,5,·,·,·
CCN(CC)CCN1C(=O)C(=O)/C(=C(/O)c2c(C)[nH]c(C(=O)OC)c2C)C1c1ccc(OC)cc1 (configuration not stated),6,0,·,·,·
O=C(NCC1CCCO1)c1ccccc1-c1nc(-c2ccc(Cl)cc2)no1 (configuration not stated),-9,-5,i,i,i
O=C(NCc1cccs1)C1CCCN(S(=O)(=O)c2ccc(Br)s2)C1 (configuration not stated),12,0,·,·,·
COc1c(F)c(F)c(C(=O)O)c(Nc2ccccc2C)c1F,-6,-5,·,·,·
Cc1ccccc1NC(=O)c1ccc(NC(=O)c2ccco2)cc1,0,-6,i,i,i
COc1ccc(NC(=O)CN2CCN(CC(=O)Nc3ccccc3F)CC2)c(OC)c1,9,-4,·,·,·
Cc1sc2nc3n(c(=O)c2c1C)NC(=O)CC3,0,-4,i,i,i
Cc1ccc(C)c(N2CCN(C(=O)c3cc(S(=O)(=O)N4CCOCC4)ccc3F)CC2)c1,-5,-2,·,·,·
O=C(O)CCCNc1cc(N2CCC3(CC2)OCCO3)c2noc3c2c1C(=O)c1ccccc1-3,73*,32*,·,·,·
Cc1cc(C)c(NC(=O)NC(=O)c2ccc(F)cc2)c(C)n1,-1,-1,·,·,·
CC(=O)c1c(N=CN(C)C)nc(C)nc1-c1ccccc1,0,-2,·,·,·
Cc1ccc2cc3cc(C(=O)N4CCCCCC4)oc3nc2c1,3,3,·,·,·
C/C(=N\O)C(=O)C(CN1CCCCC1)CN1CCCCC1,5,-7,i,i,i
COc1ccc(-n2nc(C(=O)Nc3ccc4c(c3)OCO4)c3ccccc3c2=O)c(OC)c1,1,-2,·,·,·
CN(C)c1ccc(C2N(c3ccc(F)cc3)C(=O)C3CCCN32)cc1 (configuration not stated),-2,-7,·,·,·
CC(=O)N1CCc2cc(S(=O)(=O)NC(C(=O)NC3CCCc4ccccc43)C(C)C)ccc21 (configuration not stated),8,6,·,·,·
CN(C)CCCNC(=O)c1ccc(CN(c2ccccc2)S(C)(=O)=O)cc1,-3,-2,i,i,i
Cc1cc2oc(=O)cc(C)c2c(=O)o1,0,-7,i,i,i
CCN(CC)S(=O)(=O)c1ccc(C(=O)NCc2n[nH]c(=S)n2Cc2ccccc2)cc1,-14,-2,·,·,·
O=C(Nc1ccc(Br)c2cccnc12)c1ccc(Cn2cc(Cl)cn2)o1,2,1,i,i,i
CCCC(=O)CN1C(=O)C2(OCCO2)c2ccccc21,1,-1,·,·,·
COc1ccc2nc(SCC(=O)NC(C)C)[nH]c2c1,8,-5,i,i,i
Cc1cc2ccccc2c(=O)n1CC(=O)NCC(=O)N(C)Cc1ccccc1,-5,-7,·,·,·
COc1ccccc1CNC(=O)Nc1cccs1,2,1,i,i,i
CCN(CC)c1ccc(NC(=O)C2CCCN(S(=O)(=O)c3cccnc3)C2)c(C)c1 (configuration not stated),-4,2,·,·,·
COc1ccc(C2=NOC(C(=O)Nc3ccc(C(C)=O)cc3)C2)cc1OC (configuration not stated),0,1,·,·,·
CCC(=O)N1CCN=C1SCc1ccccc1Cl,3,-4,·,·,·
c1ccc(-c2noc(-c3cccnc3)n2)nc1,1,-3,i,i,i
CCOC(=O)N1CCC(NC(=O)c2cccnc2SC)CC1,-1,-1,·,·,·

# The list is partial (hit frequency here may not be typical).
